Screening data deposited in PubChem by National Center for Advancing Translational Sciences (NCATS).
gsp antag – qHTS for Antagonists of gsp, the Etiologic Mutation Responsible for Fibrous Dysplasia/McCune-Albright Syndrome: qHTS; gsp-mutant cells, cAMP HTRF, 30 min; control for the full effect not named in the record; Potency, µM (top dose mostly 76.9 µM), without a hit: at the top dose activity change, negative = inhibition, actives largely listed as inhibitors; hit rate 0.4% among 340,000; active = falling curve of any shape with a large fitted effect; inconclusive = falling curve, mostly with a smaller effect; inactive = flat or rising curve; cell line not stated here;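 also: intracellular cAMP measured with PDE inhibitor Ro 20-1724 present during compound exposure; potency is read from the fitted curve at half-maximal effect; % is scaled to controls: 0 for no effect and ±100 for the full control effect; nearly all actives have a fitted effect of over 65% in size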
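HTRF cAMP measurement after 30 min RT detection following 30 min, 37C compound treatment alongside […] (added as 300 uM solution) in G418-selected cells seeded at 2000/well and grown 16–24 h.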
TRPML1 blocker – qHTS for Inhibitors of the Human Mucolipin Transient Receptor Potential 1 (TRPML1); Mucolipin-1 (Homo sapiens), Q9GZU1; TRPML1-inducible cells, Ca2+ dye fluorescence, FDSS; stronger effect = lower value; inhibition of EC80 agonist-evoked calcium signal; activity change, negative = inhibition, % (concentration not given with the values); hit rate 0.02% among 390,000; in the data active means activity change below about -50%; inconclusive means about -30% to -50%; inactive means above about -30%;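 also: stimulus is agonist 54-4 at its EC80 concentration; % is scaled to controls: 0 for no effect and ±100 for the full control effect; compound concentration not given in the record; the text of the record puts the active cut at -80%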
Target sequence (Q9GZU1 whole entry, looked up): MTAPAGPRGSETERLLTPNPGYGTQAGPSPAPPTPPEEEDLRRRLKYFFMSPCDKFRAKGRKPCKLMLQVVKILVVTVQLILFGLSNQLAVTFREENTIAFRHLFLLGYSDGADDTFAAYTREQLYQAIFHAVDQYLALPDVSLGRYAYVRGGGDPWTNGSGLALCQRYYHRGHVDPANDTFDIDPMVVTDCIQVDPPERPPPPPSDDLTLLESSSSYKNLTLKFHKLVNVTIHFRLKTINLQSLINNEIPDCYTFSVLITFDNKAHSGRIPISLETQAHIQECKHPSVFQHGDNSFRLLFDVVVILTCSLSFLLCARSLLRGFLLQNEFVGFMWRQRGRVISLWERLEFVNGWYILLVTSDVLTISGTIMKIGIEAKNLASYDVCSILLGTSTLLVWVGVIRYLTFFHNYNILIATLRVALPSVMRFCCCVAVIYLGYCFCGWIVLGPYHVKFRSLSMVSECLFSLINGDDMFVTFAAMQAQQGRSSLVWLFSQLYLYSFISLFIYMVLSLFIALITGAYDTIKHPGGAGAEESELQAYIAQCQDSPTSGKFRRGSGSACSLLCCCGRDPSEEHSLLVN
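TRPML1-DL cells, Tet-induced overnight (~16 h, 37 °C) at 1,500 cells/well, were loaded with Ca8 no-wash dye plus quencher for 45-90 min at room temperature. Compounds were pinned during FDSS kinetic reading; agonist 54-4 at EC80 (4 uM final) then added.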
ClpP mod – qHTS Assay for Activators of ClpP; ATP-dependent Clp protease proteolytic subunit (Bacillus subtilis (strain 168)), P80244; purified B. subtilis ClpP, FRET peptide cleavage, 20 min; Potency, µM (series often up to 57.5 µM), for inactives: at the highest dose activity change, negative = active; hit rate 1.9% among 340,000; active = well fitted falling curve with a large enough effect; inconclusive = small, poorly fitted or top-dose-only effect; inactive = no such curve, though single readings can be large or run the other way; also: potency is read from the fitted curve at half-maximal effect; the source files actives as falling curves though it sought activators and does not explain the sign; nearly all actives have a fitted effect of over 65% in size; many hits overshoot -100%
Target sequence (P80244 whole entry, looked up): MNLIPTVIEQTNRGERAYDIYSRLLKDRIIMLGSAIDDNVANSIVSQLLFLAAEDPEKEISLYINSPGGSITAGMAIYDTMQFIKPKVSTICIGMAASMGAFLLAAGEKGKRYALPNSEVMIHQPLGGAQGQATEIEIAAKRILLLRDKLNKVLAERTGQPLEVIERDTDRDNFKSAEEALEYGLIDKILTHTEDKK
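Buffer: 100 mM Tris/HCl pH8, 100 mM KCl, 0.05% low protease BSA, 2.5% glycerol, 0.01% Tween-20. ClpP 10 microg/mL final; 20 min RT; delta FRET normalized to ADEP and DMSO controls.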
Menin MLL FP FL – qHTS Assay for Inhibitors Targeting the Menin-MLL Interaction in MLL Related Leukemias: Competition With Fluorescein Labeled MLL-derived Peptide; Fluorescence polarization, fluorescein-MLL peptide displacement from menin; FP activity change, % at 61.4 µM; 290,000 tested, under 10 active; inconclusive = falling polarisation curve, or a change in total fluorescence; inactive = total fluorescence flat and polarisation flat or rising; no compound was filed as active; the % refers to the polarisation; negative = inhibition;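 also: % of control where 0% means no effect; inhibitors lower the polarisation; unlabelled MLL peptide was the positive control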
TRPML1 agonist – qHTS for Agonists of the Human Mucolipin Transient Receptor Potential 1 (TRPML1) | TRPML1-expressing cells, Ca2+ dye fluorescence, FDSS; host cell line not named in the record; reference of the full effect not given here | activation, % (test concentration not listed) | hit rate 0.12% among 410,000 | AID 624414, 2012; in the data active = activation above about 50%; inconclusive = about 30% to 50%; inactive = below about 30%; also: 0% is about no effect; the text of the record puts the active cut at 80%
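Cells: TRPML1-DL, 1X Tet inducer, ~16 h at 37 degrees C/5% CO2. Dye: ABD Ca8 no-wash + quencher, 45-90 min RT. Read: 10 s baseline, compound add, 110 s agonist phase; 54-4 EC80 (4uM final), 110 s antagonist phase.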
gsp ag – qHTS for Agonist of gsp, the Etiologic Mutation Responsible for Fibrous Dysplasia/McCune-Albright Syndrome: qHTS | gsp mutant cells, cAMP HTRF, 30 min; control for the full effect not named in the record | AID 624287, 2012 | Potency, µM (titrated, usually from 76.9 µM), without a hit: at the top dose activation (cAMP increase), actives largely listed as activators | hit rate 0.13% among 340,000; active = well fitted activation curve with a large enough effect; inconclusive = small, poorly fitted or top-dose-only effect, or another doubt; inactive = no such curve, though single readings can be large or run the other way; cell line not stated here;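 also: phosphodiesterase inhibitor Ro 20-1724 added with compounds to block cAMP breakdown; potency is read from the fitted curve at half-maximal effect; nearly all actives have a fitted effect of over 60% in size; about a fifth of the inactives were tested at one dose only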
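Cells stably selected in G418 were plated at 2000/well, grown 16-24 hr, then given compounds in DMSO with the PDE inhibitor […] (300 uM solution added) for 30 min at 37C; cAMP was read by HTRF.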
* = called active by the depositor; ? = inconclusive; nt = no result given; & = joins results of further samples; [ ] = dose if it differs, or a comment.

SMILES | gsp antag | TRPML1 blocker | ClpP mod | Menin MLL FP FL | TRPML1 agonist | gsp ag
COc1ccc(CCNC(=O)C2CCN(C(=O)c3ccc([N+](=O)[O-])cc3)CC2)cc1 | -5% | 23 | -0.7% | 4.7 | 3.4 | ?
CCCCNC(=O)C1CCN(S(=O)(=O)CCC)CC1 | nt | -8 | -4.2% | nt | 1.7 | nt
O=C(O)/C=C/C(=O)N1N=C(c2ccco2)CC1c1ccco1 (stereo not drawn) | 3% | -4 | 1.8% | 1.1 | -0.4 | -4%[15.4 µM]
CCCCn1c(N)c(N(CCOC)C(=O)c2cccc(OCc3ccccc3)c2)c(=O)[nH]c1=O | 12% | 5 | -8.3% | nt | 0.0 | -25%
O=C(Nc1ccccc1)c1cc([N+](=O)[O-])ccc1NC1CCCCC1 | -6% | -5 | -1.2% | 5.3 | 1.4 | 6%[15.4 µM]
COc1ccc(CC(=O)OC(C)C(=O)Nc2ccc(S(N)(=O)=O)cc2)cc1 (stereo not drawn) | -6% | 15 | 1.5% | nt | 1.7 | -8%[15.4 µM]
O=C(NCC1CCCCC1)c1ccc2nc([C@@H]3O[C@H](CO)[C@H](O)[C@H](O)[C@H]3O)[nH]c2c1 | nt | 17 | -1.0% | nt | 0.2 | nt
COCCn1c(=O)[nH]c2cc(C(=O)OC)ccc2c1=O | 1% | -5 | 28µM* | 3.8 | -0.9 | 5%
CC(C)n1c(CN2CCN(C(=O)c3ccco3)CC2)nc2c1c(=O)n(C)c(=O)n2C | 2% | 11 | 0.7% | nt | -0.5 | ?
Cc1cccc(NC(=S)N=Nc2c(O)n(C)c3ccc(S(=O)(=O)N4CCOCC4)cc23)c1 | ? | 13 | 0.5% | 0.3 | -0.5 | -16%
CCOc1ccc(CNS(=O)(=O)c2c(C(=O)N3CCCC3)c(C)n(C)c2C)cc1OC | 16% | -7 | -1.4% | -4.4 | 0.1 | -23%
COc1cc(OC)cc(C(=O)Nc2ccc3c(c2)OCCO3)c1 | -5% | 9&-18 | -2.4% | -1.4 | 1.5&1.4 | -2%
COC(=O)c1ccccc1NC(=S)NC(=O)C1CCCCC1 | -1% | 24 | 9.2% | 1.7 | 0.2 | -41%[inhibitor]
O=C(CN1CCN(c2ccccc2)CC1)c1c[nH]c2ccccc12 | -3% | 8 | 0.7% | 8.5 | -0.6 | -6%[15.4 µM]
COc1ccc(NC(=O)CNC(=O)Cc2ccccc2)cc1 | 12% | -8 | nt | -2.2 | 0.9 | 9%
CN(C(=O)CCS(=O)(=O)c1cc2c(cc1Cl)NC(=O)CO2)C1CCCCC1 | -3% | -6&1 | 2.2%&0.4% | -3.9 | -0.6&0.7 | -14%
O=C(O)C(=Cc1ccc([N+](=O)[O-])cc1)c1cccc(Cl)c1 | nt | -8 | 0.0% | nt | -0.8 | ?
CCN(CC(=O)Nc1ccccc1C(F)(F)F)C(=O)Cc1sc(C)nc1-c1ccc(F)cc1 | -2% | -6 | -3.9% | nt | 1.7 | 11%
COc1cccc(NC(=O)Cc2nnc(SCC(=O)c3ccccc3)n2C)c1 | -1% | -8 | -4.1% | -1.0 | -0.5 | -6%
CC(=O)Nc1cccc(C(=O)OCC(=O)NC(C)c2ccc(F)cc2)c1 (stereo not drawn) | 7% | -7 | -2.1% | -0.6 | -0.8 | -20%[15.4 µM]
O=C(NCc1cccc(C(F)(F)F)c1)C1CC(c2ccccc2C(F)(F)F)=NO1 (stereo not drawn) | 13% | 11 | -1.2% | 2.5 | 1.5 | nt
CCOc1ccc(Cl)cc1S(=O)(=O)NCc1cccnc1 | 5% | -19 | -2.4% | -0.2 | -0.8 | 5%
CC1Oc2cc3oc4c(O)c(O)ccc4c(=O)c3c(O)c2C1(C)C (stereo not drawn) | -12% | -7 | 0.9% | nt | -0.2 | 23%
CCCc1ccc(NC(=O)C2CCCN(c3cnccn3)C2)cc1 (stereo not drawn) | 5% | 22&17 | -19%&-15% | nt | 3.8&4.4 | -2%
CCOC(=O)c1ccc(NC(=O)c2nn(C)cc2Br)cc1 | 6% | -8 | -3.2% | 0.3 | -0.9 | 35%

Structural class: the entries above containing an aryl methoxy group
SMILES | gsp antag | TRPML1 blocker | ClpP mod | Menin MLL FP FL | TRPML1 agonist | gsp ag
COc1ccc(CCNC(=O)C2CCN(C(=O)c3ccc([N+](=O)[O-])cc3)CC2)cc1 | -5% | 23 | -0.7% | 4.7 | 3.4 | ?
COc1ccc(CC(=O)OC(C)C(=O)Nc2ccc(S(N)(=O)=O)cc2)cc1 (stereo not drawn) | -6% | 15 | 1.5% | nt | 1.7 | -8%[15.4 µM]
CCOc1ccc(CNS(=O)(=O)c2c(C(=O)N3CCCC3)c(C)n(C)c2C)cc1OC | 16% | -7 | -1.4% | -4.4 | 0.1 | -23%
COc1cc(OC)cc(C(=O)Nc2ccc3c(c2)OCCO3)c1 | -5% | 9&-18 | -2.4% | -1.4 | 1.5&1.4 | -2%
COc1ccc(NC(=O)CNC(=O)Cc2ccccc2)cc1 | 12% | -8 | nt | -2.2 | 0.9 | 9%
COc1cccc(NC(=O)Cc2nnc(SCC(=O)c3ccccc3)n2C)c1 | -1% | -8 | -4.1% | -1.0 | -0.5 | -6%

(listing goes on)
SMILES | gsp antag | TRPML1 blocker | ClpP mod | Menin MLL FP FL | TRPML1 agonist | gsp ag
COc1ccc(C(NC(=O)CN2C(=O)NC3(CCc4ccccc43)C2=O)c2ccc(OC)cc2)cc1 (stereo not drawn) | -11% | -1 | -2.2% | nt | 0.7 | 8%
O=C(Nc1nc(=O)n(C(=O)c2cccc(C(F)(F)F)c2)s1)c1ccccc1 | -3% | -18 | 0.2% | 0.3 | 0.1 | -8%
COc1ccc(/C=C2\SC(=S)N(CC(=O)OCC(=O)Nc3ccc(C)cc3Cl)C2=O)cc1 | -3% | -1 | nt | 7.8 | 0.7 | ?
Cc1ccc(CN(Cc2cc3cccc(C)c3[nH]c2=O)C(=S)NCCCN(C)C)cc1 | 6% | 11 | 22µM* | -2.0 | 0.2 | 0%[15.4 µM]
Cc1ccc2cc3cc(C(=O)N4CCN(c5cccc(C(F)(F)F)c5)CC4)sc3nc2c1 | nt | 33 | -4.7% | nt | -0.6 | nt
COc1cccc(OCc2nnc(SCC(=O)NCc3ccco3)n2CCc2ccccc2)c1 | ? | 4 | -0.7% | 1.4 | -0.6 | 2%
Cc1ccc(NC(=O)C2COc3ccccc3O2)cc1C (stereo not drawn) | -17% | -8 | 0.1% | 1.5 | 0.0 | 1%[15.4 µM]
CC/C(=N\n1nnnc1Nc1ccccc1)c1ccccc1 | 2% | -10 | 0.2% | -2.3 | 0.4 | -41%[inhibitor]
CCC(=O)Nc1cc(C(=O)OC(C(=O)c2ccc(C)c(C)c2)c2ccccc2)ccc1C (stereo not drawn) | -23% | -12 | -2.8% | 2.9 | 0.3 | -11%
COc1c(C)cc(NS(=O)(=O)c2ccc3c(c2)OCCO3)cc1C | nt | -27 | 3.1% | nt | 2.2 | nt
CCCN(CCC)CCCNC(=O)Cn1ncc2c3ccccc3n(Cc3ccccc3F)c2c1=O | nt | -20 | -18% | nt | -0.8 | nt
O=C(O)c1cccc(NC(=S)NC(NC(=O)c2cccc([N+](=O)[O-])c2)C(Cl)(Cl)Cl)c1 (stereo not drawn) | 2% | -8 | -6.0% | 1.1 | -0.6 | -12%
C=CCN1C(=O)NC2(O)C(=O)c3ccccc3C12O (stereo not drawn) | 4% | 5 | 2.7% | -1.6 | -0.6 | -39%[inhibitor]
CCCOc1ccc2c3c(c(=O)oc2c1OCCC)CCCC3 | -27% | -4 | -12% | 1.6 | -1.0 | -29%
CCOc1ccccc1CNC(=O)c1ccc(N2Cc3ccccc3Oc3ncccc32)s1 | nt | -3 | ? | nt | 0.1 | nt
Cc1ccnc(NS(=O)(=O)c2ccc(NC(=O)CCS(=O)(=O)c3ccccc3)cc2)n1 | -9% | -9 | 0.5% | 2.1 | 0.5 | -3%
CCOc1cc(-n2ncc(C#N)c2N)nc(SC)n1 | 0% | -6 | 0.9% | 0.4 | -0.3 | 0%
Cc1ccc(S(=O)(=O)N(C)C)cc1NC(=O)c1cc(S(=O)(=O)N2CCCCC2)ccc1N1CCOCC1 | 4% | 3 | -4.3% | nt | 0.7 | 2%
CC(=C/c1ccco1)/C=N/NC(=O)Cc1cccn1C | -10% | 1 | 1.6% | 17 | 0.5 | 12%
Cn1c2ccccc2c(=O)c2ccc(C#Cc3ccccn3)cc21 | 20% | -9 | -29% | -6.4 | -0.4 | ?
COc1ccc(N(C(=O)/C=C/c2ccc(OC)c(OC)c2)C2=CC3CCC(C2)N3C)cc1 (stereo not drawn) | 2% | 27 | nt | 1.4 | 0.6 | 8%[15.4 µM]
CCOC(=O)c1ccc(N2C(=O)C(O)=C(C(C)=O)C2c2ccccn2)cc1 (stereo not drawn) | -8% | 3 | -12% | 3.0 | -0.5 | 1%
S=c1[nH]nc(-c2ccccn2)n1/N=C/c1cccc2ccccc12 | -15% | 4 | 0.2% | 2.2 | -0.2 | 10%[15.4 µM]
CC(C)c1ccc(C(=O)Nc2cccnc2)cc1 | 4% | 1 | nt | 0.4 | 0.3 | -1%
COc1ccc(C2=CSC3=NCCN23)cc1 | 11% | 8 | nt | -1.0 | 0.3 | 20%

The list goes on.
SMILES | gsp antag | TRPML1 blocker | ClpP mod | Menin MLL FP FL | TRPML1 agonist | gsp ag
CCOC(=O)C1=C(C)N(CC(C)C)C(=O)C1 | 5% | -6 | nt | -0.9 | -0.2 | 1%[15.4 µM]
Cn1c(=O)[nH]c(=O)c2c1nc(N1CCCCC1)n2CCSc1nc2ccccc2o1 | -5% | 36 | 0.6% | 2.3 | -0.8 | 29%
Cc1ccccc1OCC(=O)Nc1ccc2oc(-c3ccc(F)cc3)nc2c1 | nt | -8 | ? | nt | 1.5 | nt
COc1ccc(OCC(=O)NNC(=O)c2c(-c3ccccc3Cl)noc2C)cc1 | 7% | -17 | nt | 0.5 | -0.1 | ?
Cc1ccc(C)c(Nc2nnc(-n3nc(C)cc3C)c3ccccc23)c1 | nt | 2 | -1.9% | nt | 1.2 | nt
CCn1nc(C)c(NC(=O)CSc2nnc(-c3ccco3)n2C)c1C | 6% | -8 | -1.6% | 2.3 | 0.5 | -5%
